Source: PubChem
PINK1 expr mod: A Quantitative High throughput Screen to Identify Chemical Modulators of PINK1 Expression | PINK1 immunofluorescence, high-content cytometry, 24 h | Potency, µM (doses to about 76.6 µM), without a hit: at the highest dose activation (PINK1 increase), most hits filed as activators | 410,000 compounds, 0.2% hits; active = well fitted activation curve with a large enough effect; inconclusive = small, poorly fitted or top-dose-only effect; inactive = flat fitted curve, though single readings scatter; cell line not stated here;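 also: potency is read from the fitted curve at half-maximal effect; % of control where 0% means no effect; nearly all actives have a fitted effect of over 65% in size; a mitochondrial uncoupler was the plate control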
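Stable cell line, 250 cells/well, 12 h attachment; compounds pinned at 5 concentrations, 24 h; CCCP control. Fixed with nuclear dye, primary antibodies 12 h at 10 degrees C, secondary plus cell stain; laser-scanning cytometer read.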
D2 agonist: Beta-Arrestin HTS for Positive Allosteric Modulators of the Human D2 Dopamine Receptor: Agonists. D(2) dopamine receptor (Homo sapiens), P14416. DiscoveRx PathHunter D2 beta-arrestin, luminescence, 90 min; 100% = 57 uM dopamine signal. activation, % (concentration not given with the values). 360,000 compounds, 0.084% hits; in the data active = activation above about 40%; inconclusive = about 15% to 40%; inactive = below about 15%; also: the text of the record calls up to 30% inactive
Target sequence (P14416 whole entry, looked up): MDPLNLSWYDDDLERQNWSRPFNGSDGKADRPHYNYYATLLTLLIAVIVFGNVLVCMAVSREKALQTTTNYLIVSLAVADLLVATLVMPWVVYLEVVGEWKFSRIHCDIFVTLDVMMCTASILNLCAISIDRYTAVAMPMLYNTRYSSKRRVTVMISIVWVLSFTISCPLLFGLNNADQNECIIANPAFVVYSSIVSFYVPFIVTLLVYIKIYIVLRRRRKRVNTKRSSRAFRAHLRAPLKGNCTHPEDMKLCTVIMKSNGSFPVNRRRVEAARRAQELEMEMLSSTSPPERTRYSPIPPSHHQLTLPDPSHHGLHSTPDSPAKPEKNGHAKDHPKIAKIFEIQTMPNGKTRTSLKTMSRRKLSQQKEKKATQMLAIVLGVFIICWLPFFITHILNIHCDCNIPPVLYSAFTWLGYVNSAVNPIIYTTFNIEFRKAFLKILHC
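Agonist mode: compounds alone added to overnight-plated D2 PathHunter cells for 90 min at 37 C, with 57 uM final dopamine (EC100) defining full response. Beta-arrestin recruitment detected by chemiluminescent reagent, read after 1 h at ambient temperature.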
gsp ag: qHTS for Agonist of gsp, the Etiologic Mutation Responsible for Fibrous Dysplasia/McCune-Albright Syndrome: qHTS | gsp mutant cells, cAMP HTRF, 30 min; control for the full effect not named in the record | Potency, µM (titrated, usually from 76.9 µM), without a hit: top-dose activation (cAMP increase), hits mostly activators | 340,000 compounds, 0.13% hits; active = well fitted activation curve with a large enough effect; inconclusive = small, poorly fitted or top-dose-only effect, or another doubt; inactive = no such curve, though single readings can be large or run the other way; cell line not stated here;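 also: phosphodiesterase inhibitor Ro 20-1724 added with compounds to block cAMP breakdown; potency is read from the fitted curve at half-maximal effect; nearly all actives have a fitted effect of over 60% in size; about a fifth of the inactives were tested at one dose only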
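Cells in DMEM/10% FBS with G418 were pretreated with compounds in DMSO plus […] (300 uM stock) for 30 min at 37C. cAMP was measured by HTRF (cAMP-d2 plus anti-cAMP antibody-K) after 30 min at room temperature.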
Menin-MLL FL inh: qHTS Assay for Inhibitors Targeting the Menin-MLL Interaction in MLL Related Leukemias: Competition With Fluorescein Labeled MLL-derived Peptide; AID 1766, 2009; Fluorescence polarization, fluorescein-MLL peptide displacement from menin; 290,000 tested, under 10 active; FP activity change, % at 61.4 µM; inconclusive = falling polarisation curve, or a change in total fluorescence; inactive = total fluorescence flat and polarisation flat or rising; no compound was filed as active; the % refers to the polarisation; negative = inhibition;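 also: % of control where 0% means no effect; inhibitors lower the polarisation; unlabelled MLL peptide was the positive control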
ClpP mod: qHTS Assay for Activators of ClpP. ATP-dependent Clp protease proteolytic subunit (Bacillus subtilis (strain 168)), P80244. purified B. subtilis ClpP, FRET peptide cleavage, 20 min. Potency, µM (top dose mostly 57.5 µM), for the others: at the highest dose activity change, negative = active. 340,000 compounds, 1.9% hits. AID 651965, 2013; active = well fitted falling curve with a large enough effect; inconclusive = small, poorly fitted or top-dose-only effect; inactive = no such curve, though single readings can be large or run the other way; also: potency is read from the fitted curve at half-maximal effect; the source files actives as falling curves though it sought activators and does not explain the sign; nearly all actives have a fitted effect of over 65% in size; many hits overshoot -100%
Target sequence (P80244 whole entry, looked up): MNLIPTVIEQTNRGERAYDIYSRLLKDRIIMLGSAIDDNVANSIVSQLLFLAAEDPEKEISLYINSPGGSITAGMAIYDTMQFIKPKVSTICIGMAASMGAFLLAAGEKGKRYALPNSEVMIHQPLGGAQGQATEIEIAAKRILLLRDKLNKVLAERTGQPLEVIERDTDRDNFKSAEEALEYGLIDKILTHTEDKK
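Purified B. subtilis ClpP, 10 microg/mL final in Tris/HCl pH8 with KCl, BSA, glycerol and Tween-20, cleaved an Abz/nitrotyrosine-quenched decapeptide. Fluorescence (ex 320, em 430) was read at 0 and 20 min at room temperature. Delta was normalized to 5.8 microM ADEP and DMSO/no-enzyme controls.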
gsp antagonist: qHTS for Antagonists of gsp, the Etiologic Mutation Responsible for Fibrous Dysplasia/McCune-Albright Syndrome: qHTS; gsp-mutant cells, cAMP HTRF, 30 min; control for the full effect not named in the record; Potency, µM (titrated, usually from 76.9 µM), for inactives: at the highest dose activity change, negative = inhibition, hits mostly inhibitors; 340,000 compounds, 0.4% hits; active = falling curve of any shape with a large fitted effect; inconclusive = falling curve, mostly with a smaller effect; inactive = flat or rising curve; cell line not stated here;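 also: intracellular cAMP measured with PDE inhibitor Ro 20-1724 present during compound exposure; potency is read from the fitted curve at half-maximal effect; % is scaled to controls: 0 for no effect and ±100 for the full control effect; nearly all actives have a fitted effect of over 65% in size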
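Measurement of cellular cAMP by homogeneous time-resolved fluorescence following a 30 min compound exposure at 37C. The PDE inhibitor […] was present throughout; the assay buffer was DPBS with 0.05% BSA and 0.005% Tween 20.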
Sfp PPTase inh: qHTS Assay for Inhibitors of Bacillus subtilis Sfp phosphopantetheinyl transferase (PPTase) | 4'-phosphopantetheinyl transferase ffp (Bacillus subtilis), Q9F4F7 | Biochemical Sfp PPTase activity, qHTS | Potency, µM, inactives show max response, negative = inhibition, usual class: inhibitors | 310,000 compounds, 3.5% hits | AID 1490, 2009; active = well fitted inhibition curve with a large enough effect; inconclusive = small, poorly fitted or top-dose-only effect, or another doubt; inactive = no such curve, though single readings can be large or run the other way;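 also: the enzyme is Sfp with the accession as filed and its product quenches rhodamine fluorescence; potency is read from the fitted curve at half-maximal effect; 0% = enzyme reaction without inhibitor and -100% = no enzyme wells; top concentration of the series not given in the record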
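Reaction rates are the 30-min fluorescence difference (ex 525, em 598 nm) in wells containing 15 nM Sfp, 5 uM rhodamine-CoA and 12.5 uM BHQ-2-YbbR at pH 7.6 with 10 mM MgCl2.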
The depositor's hits bear a star; ? = inconclusive; / = no result given; [ ] = remark or other dose.

Below each compound – PINK1 expr mod	D2 agonist	gsp ag	Menin-MLL FL inh	ClpP mod	gsp antagonist	Sfp PPTase inh
CCc1nc(Sc2nc(C)cc(C)n2)c2oc3ccccc3c2n1
    1.8%	-2.0	?	-0.4	-4.2%	0%[15.4 µM]	20%
COc1cccc(Cn2c(=O)c(-c3ccc(F)cc3)nc3cnc(OC)nc32)c1
    0.0%	/	/	1.8	/	/	6%
Cc1nc(N2CCCC2)c2ccsc2n1
    0.3%	-1.9	9%	-0.7	-0.7%	-6%	12%
Cc1cc2c(cc1C)C(=O)NC(C)(C)C2
    -1.5%[38.3 µM]	-3.3	-10%	0.2	-1.1%	-6%	-8%
Cc1cccc(C2CC3(CC(C)(C)NC(=S)N3)Oc3cc(O)ccc32)c1 (stereo unspecified)
    -2.3%	-2.0	0%	-1.6	/	-1%	0%
CCCCn1c(N)c(N(C)C(=O)c2ccc(Br)o2)c(=O)[nH]c1=O
    -1.4%	3.9	29%	/	0.6%	12%	/
O=C(Nc1cccc(C(F)(F)F)c1)/C(=C/c1ccco1)NC(=O)c1cccs1
    14%	-5.3	-5%	6.0	3.4%	7%	-21%
COc1cc(NC(=O)Nc2ccccc2OC)c(OC)cc1NC(=O)CN1CCCCC1
    3.8%	-4.9	-51%[inhibitor]	1.6	-1.0%	?	10%
COc1ccc(N2C(=O)C3C(C2=O)C(C(=O)c2ccc(Cl)cc2)N2CCCC32)cc1 (stereo unspecified)
    2.1%	-0.1	2%[15.4 µM]	?	/	-4%	28µM*
COc1ccc(CN2CCNC(=O)C2CC(=O)N2CCCN(C(C)=O)CC2)cc1OC (stereo unspecified)
    -1.1%	-11	24%	-0.6	-4.8%	3%	11%
C/C(=N/NC(=O)c1ccccc1)C1=C(O)CC(C)(C)CC1=O
    -0.4%	-0.4	-17%	3.9	-5.5%	?	-2%
CCOC(=O)CC(NC(=O)C1c2ccccc2Oc2ccccc21)c1ccc(C)cc1 (stereo unspecified)
    10%	-2.5	-4%[15.4 µM]	2.2	-0.3%	8%	20%
CC(=O)Nc1sc(C)c(C)c1C(=O)OCC(=O)N(Cc1ccccc1)C(C)C
    8.8%	-0.3	?	/	-3.6%	28%	/
Cc1nn(C)c(C)c1N1C(=O)c2cccc3c(N)ccc(c23)C1=O
    1.4%	-0.8	?	?	1.4%	3%	-1%
Cc1ccc(Cn2c(SC(C)C(N)=O)nc3ccccc3c2=O)cc1 (stereo unspecified)
    10%	2.0	1%	3.5	/	1%	11%
COc1ccccc1C1c2[nH]c3ccccc3c2CCN1Cc1ccc(NC(C)=O)s1 (stereo unspecified)
    -1.4%	3.2	-16%	6.3	-4.2%	2%	1%
Oc1ccccc1/C=N/NC1=NCCCCC1
    1.4%[38.3 µM]	0.4	4%	-0.5	-15%	-5%	-5%
Cc1ccc(CC(=O)CCc2ccccc2)cc1
    5.1%	-2.6	-14%	/	0.9%	2%	/
CN(C)c1ccc(C(CNS(=O)(=O)c2ccc([N+](=O)[O-])cc2)N2CCCC2)cc1 (stereo unspecified)
    -3.0%	2.6	-14%	/	-2.4%	6%	/
O=C(OCc1csc(-c2ccccc2)n1)C1=NN(c2ccccc2)C(=O)CC1
    0.0%	-2.0	3%	/	1.7%	-21%	/
COc1ccc(CC(N)c2csc(Nc3nc(C)cnc3C)n2)cc1 (stereo unspecified)
    7.3%	6.0	/	/	1.2%	/	/
COCCCNC(=O)CC(NS(=O)(=O)c1ccc(Cl)cc1)c1ccco1 (stereo unspecified)
    -2.8%	-0.8	-2%	3.4	2.5%	-2%	16%
O=C(CCNS(=O)(=O)c1ccccc1)OCC(=O)c1ccc(Cl)cc1
    3.9%	-5.9	3%	/	-0.2%	1%	/
CCOc1ccc(NC(=S)NC(=O)c2c(Cl)cnn2CC)c([N+](=O)[O-])c1
    3.8%	-5.6	-68%[inhibitor]	-2.7	-1.4%	-9%	?
COc1ccc2nc(/N=C(\N)NC(=O)Nc3ccccc3)nc(C)c2c1
    1.9%	-1.2	2%	4.0	14µM*	20%	-16%
CCNC(=S)N/N=C/c1cccc(/C=N/NC(=S)NCC)c1
    0.4%	-16	-2%[15.4 µM]	-2.4	/	3%	40µM*
Clc1ccc(CON/C=N/c2ncnc3sccc23)cc1
    1.5%	1.3	-14%	2.8	-2.0%	-11%	1%
C=C(C)COc1ccc(-c2n[nH]c(C)c2-c2ccc(Br)cc2)c(O)c1
    ?	0.9	-7%	3.9	-3.9%	3%	15%
COc1ccc2cc(C3=CC(=O)CCC3)ccc2c1
    -0.3%	-0.2	5%[15.4 µM]	/	-1.0%	-13%	/
O=C(O)CNC(=O)/C(=C\c1cccc([N+](=O)[O-])c1)NC(=O)c1ccco1
    2.9%	-2.3	-20%[15.4 µM]	-1.2	/	8%	-11%

Compounds shown so far that contain fluorine, in the order listed:
Below each compound – PINK1 expr mod	D2 agonist	gsp ag	Menin-MLL FL inh	ClpP mod	gsp antagonist	Sfp PPTase inh
COc1cccc(Cn2c(=O)c(-c3ccc(F)cc3)nc3cnc(OC)nc32)c1
    0.0%	/	/	1.8	/	/	6%
O=C(Nc1cccc(C(F)(F)F)c1)/C(=C/c1ccco1)NC(=O)c1cccs1
    14%	-5.3	-5%	6.0	3.4%	7%	-21%

(listing goes on)
Below each compound – PINK1 expr mod	D2 agonist	gsp ag	Menin-MLL FL inh	ClpP mod	gsp antagonist	Sfp PPTase inh
Cc1cc2cc(CNC(=O)c3ccc(C)c([N+](=O)[O-])c3)ccc2[nH]1
    0.9%	-4.7	-30%	1.8	-0.5%	-5%	9%
COc1ccc(/C=C/c2nc(-c3ccccc3O)n[nH]2)cc1OC
    21%	4.0	-17%	1.9	-13%	-10%	4%
Cc1ccc(S(=O)(=O)N(C)c2ccc(C(=O)NCCc3ccccc3)cc2)cc1
    -0.4%	-3.9	-21%	1.8	-2.0%	-17%	0%
COc1cccc(CNC(=O)CCC2CCCN(C(=O)c3cccnc3SC)C2)c1 (stereo unspecified)
    -0.1%	-12	?	/	-0.5%	-12%	3%
CC(C)CCn1nc(C(=O)Nc2nc3c(s2)CCCC3)c2ccccc2c1=O
    2.9%	3.1	?	6.6	/	-5%	-21%
CCOC(=O)c1ccc(NC(=O)CN(c2ccc(C)cc2)S(=O)(=O)c2c(C)nn(C)c2C)cc1
    -1.2%[38.3 µM]	-0.5	14%	4.5	-0.3%	-21%	3%
O=C(Nc1ccc(S(=O)(=O)Nc2ccc(F)cc2)cc1)c1ccc(CN2CCOCC2)cc1
    8.2%	3.5	4%[15.4 µM]	0.5	/	?	-15%
COc1ccc(C(=O)NCc2ccc3c(c2)cc(C)n3C)cc1
    1.6%	-6.6	-35%[inhibitor]	-10	-0.6%	4%	-5%
NC(=O)NOCc1cccc(Cl)c1
    3.0%	-2.3	6%[15.4 µM]	-3.2	/	-9%	7%
COc1ccc(CC(=O)Oc2ccc(F)c(F)c2)cc1S(=O)(=O)N1CCOCC1
    -0.5%	-4.8	-37%[inhibitor]	/	-1.5%	-24%	/
Cc1ccc(NC(=S)N2CCC(C(N)=O)(N3CCCCC3)CC2)c(C)c1
    -1.2%	-5.0	-12%[15.4 µM]	1.7	/	-17%	7%
COc1ccccc1NS(=O)(=O)c1ccc2c(c1)CCN2C(=O)CCC(=O)O
    0.6%	1.9	2%	?	-0.9%	2%	-5%
CC(OC(=O)/C=C/c1ccccc1)C(=O)N1CCc2ccccc21 (stereo unspecified)
    11%	1.2	-27%	/	-3.4%	-2%	/
CCOc1ccc(N2C(=O)CSC2c2ccncc2)cc1 (stereo unspecified)
    -2.8%	-1.8	5%	-1.0	-3.8%	5%	4%
CN(CC(=O)Nc1ccccc1Br)C(=O)COc1ccc2ccccc2c1
    2.0%	6.0	-11%	/	0.2%	-19%	/
CCc1cc(-c2n[nH]c(=S)n2CC)cs1
    -0.1%	-3.8	?	/	-3.9%	-1%	-11%
CC(C)c1ccc(NC(=O)CCNS(=O)(=O)c2ccc3[nH]c(=O)oc3c2)cc1
    0.0%	-0.1	?	/	-3.9%	4%	8%
COc1ccc(OC)c2sc(N(CCCN(C)C)C(=O)CCS(=O)(=O)c3ccccc3)nc12
    -2.0%	-3.6	25%	/	-2.6%	2%	/
COc1ccc(-c2noc(CCC(=O)N3CCN(Cc4ccccc4)CC3)n2)cc1
    -0.5%	-4.0	-7%	2.8	-0.2%	2%	-5%
CCC(C)(C)c1ccc(OCCN2C(=O)NC(C)(C)C2=O)cc1
    /	-2.0	?	2.7	1.3%	-15%	8%
COc1cc(NC(=O)c2ccc(C)cc2C)ccc1NC(=O)c1cc2ccccc2o1
    -0.4%	-5.5	19%	2.0	3.3%	-2%	11%
Cc1ccccc1CSCC(=O)NC1CCCC1
    -0.6%	-1.3	8%	1.7	0.8%	7%	10%
Nc1c(-c2ccccc2)cnn1-c1ccccc1
    -0.1%	-0.6	-13%	5.5	-1.6%	-3%	6%
